From PubChem BioAssay
PV pol inh = poliovirus RdRp elongation inhibitors, primary screen, biochemical, fluorescence polarization, total intensity | % elongation, % (compound at 16.7 µg/mL) | 150,000 compounds, 0.66% hits | Genome polyprotein (Poliovirus type 1 (strain Mahoney)), P03300 | poliovirus polymerase elongation; stronger effect = lower value; in the data active = % elongation below about 90%; note: some results filed as inactive read as strong as hits
Target sequence (P03300 1749-2209 limits assumed): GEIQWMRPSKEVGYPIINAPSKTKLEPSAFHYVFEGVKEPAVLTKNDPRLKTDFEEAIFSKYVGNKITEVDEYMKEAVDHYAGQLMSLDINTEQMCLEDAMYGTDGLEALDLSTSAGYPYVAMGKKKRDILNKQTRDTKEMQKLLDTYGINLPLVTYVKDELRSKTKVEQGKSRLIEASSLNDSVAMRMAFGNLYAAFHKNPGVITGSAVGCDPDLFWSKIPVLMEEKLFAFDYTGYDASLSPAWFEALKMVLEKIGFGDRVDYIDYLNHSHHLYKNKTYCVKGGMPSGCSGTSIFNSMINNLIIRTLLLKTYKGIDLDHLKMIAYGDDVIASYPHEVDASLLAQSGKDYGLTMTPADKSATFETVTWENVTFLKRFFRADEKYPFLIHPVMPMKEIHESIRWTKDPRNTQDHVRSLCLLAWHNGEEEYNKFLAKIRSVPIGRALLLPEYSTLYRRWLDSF
PV pol inh intensity = further read-out of PV pol inh, marked with its call; % elongation; measured here: total intensity read-out; formula for this scale not given here;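 total fluorescence in place of polarization; lower means less elongation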
An asterisk follows results filed as active. Some of the compounds tested; count on the stated rates, not on these rows.

Every second line gives: PV pol inh	PV pol inh intensity
- CCN(C(=O)c1nn(-c2ccc(C)cc2)c(=O)c2c1c1ccccc1n2C)c1ccc(F)cc1
  107.0	106.0
- COc1ccc(NC(=O)c2ccco2)cc1NC(=O)c1ccccc1[N+](=O)[O-]
  103.0	107.0
- COc1ccccc1NC(=O)Cn1c(=O)n(CCc2ccccc2)c(=O)c2c3c(sc21)CN(C(C)=O)CC3
  100.0	108.0
- Cc1ccc(C)c(Cn2c(=O)n(Cc3ccc(C(=O)NC4CCN(Cc5ccccc5)CC4)cc3)c(=O)c3ccccc32)c1
  101.0	102.0
- O=C(Nc1cccnc1Cl)c1cc(-c2cccc(Cl)c2)on1
  108.0	108.0
- Cc1cc(C)c(-c2n[nH]c3c2C(c2ccccc2F)N(Cc2ccco2)C3=O)c(O)c1 (stereo not given)
  105.0	87.0
- O=S(=O)(c1ccc(Br)cc1)c1nnn2c1nc(Nc1cccc(C(F)(F)F)c1)c1sccc12
  100.0	107.0
- O=C1COc2cc(S(=O)(=O)CCC(=O)N3CCN(c4ccccc4)CC3)c(Cl)cc2N1
  102.0	103.0
- CCOc1cc(C(=O)Nc2ccc(-c3nc4cc(Cl)ccc4o3)cc2)cc(OCC)c1OCC
  101.0	107.0
- Cc1ccc(Nc2c(-c3ccc(C)cc3)nc3ccc(C)cn23)cc1
  113.0	104.0
- COc1cc(NC(=O)CC2C(=O)N(c3ccc(Cl)cc3)C(=O)N2Cc2cccs2)cc(OC)c1 (stereo not given)
  112.0	111.0
- COc1ccc(CC(=O)NCc2ccc3c(c2)CCN3C(=O)c2ccc(Cl)cc2)cc1OC
  117.0	121.0
- Cc1ccc(-c2cc(NC(=O)C(C)Oc3ccccc3F)on2)cc1 (stereo not given)
  114.0	115.0
- Cc1ccccc1Cn1c(=O)n(CC2CCC(C(=O)N3CCC(C)CC3)CC2)c(=O)c2sccc21 (stereo not given)
  103.0	109.0
- O=C(CSc1nc(-c2ccccc2)cn1-c1ccccc1F)Nc1ccc(F)cc1
  111.0	99.0
- O=C(CC(c1ccccc1)c1cc(Br)ccc1O)NCC1(c2ccccc2)CCCC1 (stereo not given)
  101.0	102.0
- CC1C(=O)Nc2ccc(S(=O)(=O)Nc3ccccc3Br)cc2NC1=O (stereo not given)
  112.0	111.0
- Cc1sc2ncn(CC(=O)N3CCN(c4cccc(Cl)c4)CC3)c(=O)c2c1S(=O)(=O)N1CCN(c2ncccn2)CC1
  106.0	107.0
- CCc1ccc(Nc2nc3c(S(=O)(=O)c4cccc(Cl)c4)nnn3c3ccsc23)cc1
  108.0	106.0
- COc1ccccc1C(=O)Nc1ccc2oc(-c3cccc4c(Br)cccc34)nc2c1
  101.0	108.0
- COc1ccc(CCNC(=O)C(=O)NCC(c2ccco2)S(=O)(=O)c2ccc(C)cc2)cc1 (stereo not given)
  112.0	89.0
- CCOC(=O)c1c(NC(=O)c2ccc(S(=O)(=O)N(CC)CC)cc2)sc2c1CCCCC2
  102.0	104.0
- CCOc1ccccc1CNC(=O)Cn1nc(N2CCN(c3ccccc3)CC2)ccc1=O
  107.0	111.0
- CCCCN(CC)CCNC(=O)C1CCCN(S(=O)(=O)c2cccc3nsnc23)C1 (stereo not given)
  115.0	106.0
- CCc1nn2c(=O)cc(COC(=O)c3ccc(NC(=O)CCc4ccccc4)cc3)nc2s1
  109.0	114.0
- COCCNC(=O)CSc1nnc(-c2ccc(OC)c(OC)c2)c(-c2ccc(OC)c(OC)c2)n1
  108.0	114.0
- Cc1ccc(-c2cc(C(F)(F)F)c(C#N)c(SCC(=O)Nc3ccccc3F)n2)cc1
  107.0	114.0
- COc1ccc(OC)c(Nc2nc3ccccc3nc2-n2nc(C)cc2C)c1
  104.0	106.0
- Cc1ccc(NC(=O)c2c(NC(=O)c3ccc(F)cc3)sc3c2CCCC3)cc1C
  100.0	101.0
- CCOC(=O)c1cnn2c(C(F)(F)F)cc(-c3ccc(Br)cc3)nc12
  112.0	109.0
- CC(C)n1c(=N)c(C(=O)NCc2ccccc2)cc2c(=O)n3ccccc3nc21
  106.0	109.0
- CCc1ccc(S(=O)(=O)Nc2ccc3[nH]c(=O)sc3c2)cc1
  106.0	108.0
- CCN(C(=O)C(NS(=O)(=O)c1cccc2nsnc12)c1ccccc1)c1ccccc1 (stereo not given)
  106.0	107.0
- CCCN(Cc1cccs1)C(=O)Nc1cc(Cl)c(OC)cc1OC
  105.0	114.0
- COc1ccc(NC(=O)c2c(NCc3cccc(F)c3)sc3c2CCC3)c(OC)c1
  113.0	121.0
- CCCC12CN3CC(CCC)(CN(C1)C3c1ccc(OCc3ccccc3)cc1)C2=O (stereo not given)
  120.0	126.0
- CC(=O)Nc1c(C)nn(-c2ccccc2)c1N1CCC(C(=O)NCc2cccc(F)c2)CC1
  102.0	99.0
- COc1ccc(Br)cc1C1SCC(=O)Nc2c1c(C)nn2-c1ccccc1C (stereo not given)
  109.0	108.0
- CCc1ccc(NC(=O)CN(C)S(=O)(=O)c2ccc3c(c2)c(=O)n(C)c(=O)n3C)cc1
  104.0	99.0
- COc1ccc(-c2onc(C)c2C)cc1S(=O)(=O)N1CCC(C)CC1
  103.0	106.0
- COc1ccc(CNCc2c(C(=O)O)n(Cc3ccc(F)cc3)c3cc(C)ccc23)cc1OC
  125.0	132.0
- O=C(NCCc1nc2ccccc2n1CCCOc1ccc(Cl)cc1)C1CCCCC1
  107.0	106.0
- Cc1cc(NC(=O)CCc2nc3cccnc3n2Cc2cccs2)ccc1Br
  116.0	159.0
- COc1cccc(CNC(=O)c2ccc(CSc3nc4ccncc4n3Cc3cccc(C)c3)cc2)c1
  113.0	116.0
- CCOc1ccccc1NC(=O)c1cn(C2CCCCC2)c(=O)c2c1c1ccccc1n2C
  110.0	110.0
- CCc1ccc2c(c1)c(=O)c(C(=O)c1ccccc1)cn2CC(=O)Nc1ccc(C)c(Cl)c1
  108.0	111.0
- Cc1ccc(-c2nc(C(=O)N3CCN(c4ccccc4)CC3)c3n2CCCCC3)cc1
  108.0	108.0
- Cc1ccc(N(CC(=O)Nc2ccc(OC(F)(F)F)cc2)S(=O)(=O)c2c(C)noc2C)cc1
  110.0	111.0
- Cc1ccc2c(CNC3CCCC3)c(C(=O)O)n(Cc3ccc(F)cc3)c2c1
  110.0	100.0
- CC(C)c1nn2c(=O)cc(COC(=O)c3ccccc3NC(=O)C3CCCCC3)nc2s1
  105.0	107.0
- COc1ccc2c(c1)CC(C(=O)N1CCC(C(N)=O)CC1)CO2 (stereo not given)
  106.0	107.0
- O=C(CC1N=C2c3ccccc3N=C(SCc3ccc(F)cc3)N2C1=O)NCCc1ccccc1 (stereo not given)
  108.0	112.0
- COc1ccc(/C=C/C(=O)Nc2cccc(F)c2)cc1
  102.0	108.0
- CCN(CC)c1ccc2cc(-c3nnc(Nc4ccc(C)cc4)s3)c(=O)oc2c1
  42.0	228.0
- COc1ccc(-c2ccc(CCC(=O)O)n2-c2ccccc2C(F)(F)F)cc1
  105.0	96.0
- CCOCCn1ccc2c(OCC(=O)Nc3cc(C(F)(F)F)ccc3Cl)cccc2c1=O
  107.0	114.0
- Cc1ccc(-c2cc(NC(=O)COc3ccc(Cl)c(C)c3)on2)cc1
  101.0	107.0
- Cc1cc(-c2ccc(S(=O)(=O)NCc3ccccc3Cl)s2)on1
  103.0	100.0
- CC(=O)N1CCc2cc(Br)cc(S(=O)(=O)N3CCC(C(=O)Nc4ccc(C(C)C)cc4)CC3)c21
  109.0	106.0
- CCC(C(=O)Nc1cccc(C#N)c1)n1nc(-c2ccccc2)ccc1=O (stereo not given)
  102.0	105.0

(cont.)
Every second line gives: PV pol inh	PV pol inh intensity
- COC(=O)c1cc(NC(=O)c2nn(C)c3c2CSc2ccccc2-3)cc(C(=O)OC)c1
  113.0	116.0
- Cc1ccc(NC(=O)CN2C(=O)c3cccnc3Oc3ccc(Cl)cc32)cc1
  103.0	97.0
- COc1ccc(-c2cn3nc(N4CCCC(C(=O)NCCCOC(C)C)C4)sc3n2)cc1 (stereo not given)
  111.0	110.0
- Cc1cccc(N2CCN(C(=O)c3cnc4c(C)cccn4c3=O)CC2C)c1 (stereo not given)
  110.0	108.0
- CC(=O)c1cccc(NS(=O)(=O)c2c(C(=O)N3CCCCCC3)c(C)n(C)c2C)c1
  106.0	108.0
- CCOc1ccc(NC(=O)CSc2nnc(CNC(=O)C34CC5CC(CC(C5)C3)C4)n2CC)cc1
  103.0	98.0
- CC1Cn2c(C(=O)NCc3ccccc3Cl)cc3cccc(c32)S1 (stereo not given)
  111.0	113.0
- Cc1ccn2c(Nc3ccc4c(c3)OCCO4)c(-c3ccc(C)s3)nc2c1
  106.0	109.0
- Cc1ccc(CNc2ncnc3c2cnn3-c2ccc(Cl)cc2)cc1
  100.0	109.0
- CCOc1ccc(-c2cc3c(=O)n(Cc4nc(-c5ccc(OCC)c(OC)c5)oc4C)ccn3n2)cc1Cl
  101.0	102.0
- COC(=O)C(C)Sc1nnc2cc(C)c3cc(C)cc(C)c3n12 (stereo not given)
  102.0	95.0
- CCOc1ccc(NC(=O)CCc2nc3cccnc3n2Cc2ccc(OC)cc2)cc1
  102.0	103.0
- CC(=O)c1ccc(NC(=O)CCc2nc(-c3ccc(C)cc3)no2)cc1
  113.0	116.0
- CCOC(=O)c1c(C)[nH]c(CCC(=O)Nc2ccc(N(CC)CC)cc2C)c1C
  105.0	101.0
- Cc1ccc(Cn2c(CN3CCC(C(=O)O)CC3)cc3ccccc32)cc1
  108.0	107.0

Full records, looked up by structure. Order of screens: PV pol inh | PV pol inh intensity
CCOC(=O)c1c(C)[nH]c(CCC(=O)Nc2ccc(N(CC)CC)cc2C)c1C is listed as 105.0 | 101.0
Cc1cccc(N2CCN(C(=O)c3cnc4c(C)cccn4c3=O)CC2C)c1 (stereo not given) is listed as 110.0 | 108.0
CC(=O)c1cccc(NS(=O)(=O)c2c(C(=O)N3CCCCCC3)c(C)n(C)c2C)c1 is listed as 106.0 | 108.0
COC(=O)C(C)Sc1nnc2cc(C)c3cc(C)cc(C)c3n12 (stereo not given) is listed as 102.0 | 95.0
CC(=O)c1ccc(NC(=O)CCc2nc(-c3ccc(C)cc3)no2)cc1 is listed as 113.0 | 116.0

Next records.
Every second line gives: PV pol inh	PV pol inh intensity
- O=C(CSc1nnc2[nH]c(=O)cc(-c3ccccc3)n12)Nc1ccc(F)cc1F
  102.0	109.0
- COC(=O)C(CCSC)NC(=O)c1cc2c(n(-c3ccc(C)cc3)c1=O)CC(C)(C)CC2=O (stereo not given)
  105.0	106.0
- CC(=O)Nc1cccc(C(=O)NCc2ccc3c(c2)CCN3C(=O)c2ccccc2)c1
  111.0	107.0
- CNC(=O)c1cc2c(n(-c3ccc(C)cc3)c1=O)CC(C)(C)CC2=O
  108.0	110.0
- CCc1cccc(C)c1NS(=O)(=O)c1c(C)nc2sccn2c1=O
  109.0	107.0
- COc1ccc2cc(C(=O)NCc3ccc4c(c3)CCN4C(=O)c3ccccc3)[nH]c2c1
  108.0	103.0
- CCS(=O)(=O)N1CCc2cc(C(=O)Nc3cc(Cl)ccc3C)ccc21
  112.0	113.0
- COc1ccc(CNC(=O)C(=O)NCC(c2ccc3c(c2)OCO3)N2CCOCC2)cc1 (stereo not given)
  105.0	111.0
- COc1cc(OC)c(Nc2nc3ccc(C(=O)c4ccccc4)cc3n3c(C)nnc23)cc1Cl
  108.0	109.0
- O=C(COc1ccc([N+](=O)[O-])cc1)Nc1nc2c(s1)CCCC2
  99.0	103.0
- CC1CCN(C(c2ccccc2)c2sc3nc(-c4ccco4)nn3c2O)CC1 (stereo not given)
  96.0	104.0
- COc1ccc(C2CC(=O)Nc3c2c(=O)nc2c(C)cccn32)cc1OC (stereo not given)
  109.0	110.0
- Cc1ccc(NC2=C(c3ccc(C(F)(F)F)cc3)C(=O)c3ccccc32)cc1F
  100.0	100.0
- COc1cc(OC)c(NS(=O)(=O)c2c(C(=O)N3CCC(C)CC3)c(C)n(C)c2C)cc1Cl
  103.0	108.0
- COc1ccc(N(C)C(=O)c2nn(-c3ccc(C)cc3)c(=O)n(C)c2=O)c(OC)c1
  108.0	111.0

6 compounds picked at random from those above, as already listed:
Every second line gives: PV pol inh	PV pol inh intensity
- COc1ccc(N(C)C(=O)c2nn(-c3ccc(C)cc3)c(=O)n(C)c2=O)c(OC)c1
  108.0	111.0
- O=C(COc1ccc([N+](=O)[O-])cc1)Nc1nc2c(s1)CCCC2
  99.0	103.0
- CCS(=O)(=O)N1CCc2cc(C(=O)Nc3cc(Cl)ccc3C)ccc21
  112.0	113.0
- COc1cc(OC)c(NS(=O)(=O)c2c(C(=O)N3CCC(C)CC3)c(C)n(C)c2C)cc1Cl
  103.0	108.0
- COc1ccc(CNC(=O)C(=O)NCC(c2ccc3c(c2)OCO3)N2CCOCC2)cc1 (stereo not given)
  105.0	111.0
- O=C(CSc1nnc2[nH]c(=O)cc(-c3ccccc3)n12)Nc1ccc(F)cc1F
  102.0	109.0

(cont.)
Every second line gives: PV pol inh	PV pol inh intensity
- COc1ccc(OC)c(C2CC(=O)c3c([nH]c(C(=O)OCc4ccc(C)cc4)c3C)C2)c1 (stereo not given)
  105.0	108.0
- COc1ccc(CNC(=O)CN(c2ccccc2OC)S(=O)(=O)c2ccc(C)cc2)cc1
  96.0	77.0
- Cc1c(Cl)cccc1NC(=O)c1cnc2sc(N3CCOCC3)nn2c1=O
  108.0	109.0
- COc1ccc(OC)c(S(=O)(=O)N2CCC(n3c(C)nc4cccnc43)CC2)c1
  110.0	110.0
- CSc1ccc(CCNC(=O)CCCn2c(=O)c3cccn3c3ccccc32)cc1
  108.0	113.0
- CCC(C)NC(=O)c1nn(-c2ccc(C)cc2)nc1CO (stereo not given)
  107.0	110.0
- CCN(CC)c1nc(-c2ccc(C(C)(C)C)cc2)nc2ccccc12
  104.0	105.0
- CC(=O)Nc1ccc(S(=O)(=O)NCC2CCC(C(=O)NCc3ccccc3)CC2)cc1 (stereo not given)
  102.0	110.0
- CCCn1c2ccccc2c2cnn(CC(=O)NCc3ccccc3Cl)c(=O)c21
  102.0	99.0
- O=C(COc1ccccc1Cl)Nc1ccc2nc(SCC(=O)N3CCOCC3)sc2c1
  103.0	109.0
